Compound activity (PubChem BioAssay)
BasE inh: BasE siderophore enzyme inhibitors, primary screen, biochemical, Acinetobacter baumannii ATCC 17978, fluorescence polarization; purified BasE, fluorescence polarization binding displacement; inhibition, % (concentration not given with the values); 84,000 compounds, 0.1% hits; AID 485350, 2010;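 active means both replicates above 25% with normal brightness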;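 further: 0% = negative plate control signal and 100% = positive plate control signal; stock transfer was 100 nL into about 30 µL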
LANA-nucl inh: inhibitors of KSHV LANA-nucleosome binding, primary screen, biochemical, fluorescence polarization, FITC-LANA1-23, chicken nucleosomes; FITC-LANA1-23 / chicken nucleosome fluorescence polarization; active compounds read low; z-score (concentration not given with the values); 51,000 compounds, 0.3% hits;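 active means both repeat wells score below -2 in polarization z-score versus plate sample wells, excluding overly bright wells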;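 further: 100 nL library stock added to about 30 µL; numbers are from one replicate; some results filed as inactive read as strong as hits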
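System – purified chicken nucleosomes with FITC-labelled LANA N-terminal peptide (1-23) · Amount – 240 nM purified chicken nucleosomes (480 nM peptide binding sites), final · Also added – 50 nM FITC-LANA1-23 probe · Medium – TEN-BT buffer, pH 7.5 · Incubation – compound with peptide–nucleosome mix 10–45 min at room temperature · Detection – fluorescence polarization, ex 480 nm, em 535 nm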
Numbers without * were called inactive; · = no result given; & = joins results of further samples. These rows are one share of the data; count on the stated rates, not on these rows.

Values run as follows: BasE inh	LANA-nucl inh
[1] CCc1ccc(C(=O)COC(=O)C2CSC3(C)CCC(=O)N23)cc1 (stereo unspecified)
  -1.1	·
[2] COCC(O)CNc1ccccc1 (stereo unspecified)
  0.9	-0.67
[3] O=C(N=Nc1c(O)[nH]c2ccccc12)c1ccc2c(c1)OCO2
  2.2	-0.076
[4] Cc1cc(C)cc(NS(=O)(=O)c2ccc3c(c2)C(C(C)C)C(=O)N3)c1 (stereo unspecified)
  -2.5	·
[5] Cn1nccc1/C=C(/C#N)S(=O)(=O)c1ccccc1
  0.5	-0.35
[6] N/C(=N\OC(=O)c1ccccc1)c1ccc2c(c1)CCO2
  -2.0	0.6
[7] CCOc1ccc(N2CC(C(=O)NC3CC(C)(C)NC(C)(C)C3)CC2=O)cc1 (stereo unspecified)
  -0.4	0.65
[8] O=S(=O)(Nc1ccc2c(c1)OCO2)c1ccccc1C(F)(F)F
  -2.1	·
[9] CCOC(=O)N1CCc2c(sc3nc4n(c(=O)c23)N=C(c2ccc(OC)cc2)CS4)C1
  2.9	-0.0075
[10] CC1CCN(S(=O)(=O)c2ccc3c(c2)CCCC(=O)N3)CC1
  1.4	·
[11] COCc1cc(C)nc2sc(C(=O)N3CCc4ccccc43)c(N)c12
  2.1	0.32
[12] Cc1ccc(Nc2n[nH]c(=O)c3ccccc23)cc1C
  0.5	0.056
[13] CN(C)/N=N/c1nc[nH]c1C(N)=O
  ·	1.3&-0.067
[14] CCc1ccc(Cc2cnc(NC(=O)C3=NCCN3)s2)cc1
  0.6	-0.37
[15] O=c1oc2ccc(O)cc2s1
  -1.5	-0.27
[16] CC(=O)Oc1ccccc1N(C(C)=O)S(=O)(=O)c1ccc(C)cc1
  -4.2	·
[17] O=C(Cn1c(=O)cnc2ccccc21)N1CCN(c2ccccc2)CC1
  -1.8	·
[18] CCN(CC)S(=O)(=O)c1ccc(N=Nc2c(C)[nH]n(-c3ccccc3)c2=O)cc1
  2.6	·
[19] CSc1ncc(Cl)c(C(=O)Nc2ccc(S(=O)(=O)N3CCOCC3)cc2)n1
  -0.9	0.84
[20] O=C(COC(=O)c1ccc2c(=O)n3c(nc2c1)CCCCC3)c1ccc(F)cc1
  0.4	·
[21] CSc1nnc(NC(=O)c2nc(S(=O)(=O)Cc3ccc(F)cc3)ncc2Cl)s1
  0.4	-0.14
[22] CC(OC(=O)c1ccc(-n2cnnn2)cc1)c1ccccc1Cl (stereo unspecified)
  3.7	·
[23] CCn1c(O)c(N=NC(=O)c2ccccc2O)c2ccccc21
  2.8	0.018
[24] Oc1ccccc1C1N(Cc2ccccc2)CCN1Cc1ccccc1
  2.2	·
[25] CC(=O)N1CCN(C(=O)C23CC4CC(C)(CC(C)(C4)C2)C3)CC1
  1.0	0.26
[26] Cc1cc(C)c(S(=O)(=O)N(C)c2ccccc2)c(C)c1
  0.0	·
[27] CC(C)(C)/C=N/NC(=O)c1nc(-c2c(F)cccc2Cl)no1
  -2.4	0.91
[28] COC(=O)c1ccc(CSc2nnc(COc3ccccc3Cl)n2C2CC2)o1
  1.3	·
[29] Oc1[nH]c2ccccc2c1C=NCCc1ccccc1
  1.1	·
[30] CCCc1cc(N2CCN(c3ccccn3)CC2)n2cnnc2n1
  -0.5	0.082
[31] Nc1nc2c(ncn2COCCOC(=O)c2ccccc2)c(=O)[nH]1
  -2.5	-0.15
[32] COc1ccc2c(c1)C1(NNc3ccccc3O1)C(=O)N2 (stereo unspecified)
  8.9	·
[33] Cc1cccc(Cc2cnc(NC(=O)CN3CSCC3=O)s2)c1
  -1.9	·
[34] Cn1c(=O)c2c(O)c(C=NCc3ccccc3)c(=O)n(C)c2n(C)c1=O
  0.8	·
[35] c1cncc(NCc2ccco2)c1
  1.8	·
[36] CCCNC(=O)CCn1c(=S)oc2ccccc21
  -1.4	0.35
[37] Cc1c(C(=O)NN)nn(-c2ccc(F)cc2)c(=O)c1C#N
  0.7	·
[38] N#Cc1cccc(NC(=O)COC(=O)Cc2ccccc2)c1
  0.3	·
[39] Cn1c2c(c(=O)[nH]c1=O)C(C(F)(F)F)(C(F)(F)F)NC(=O)N2
  -3.9	2.4
[40] CCOC(=O)c1oc2ccc(Br)cc2c1Cn1nc(C(=O)O)c2ccccc2c1=O
  -0.4	·

Sorted by molecular weight (highest first): three of the compounds above.
Values run as follows: BasE inh	LANA-nucl inh
[40] CCOC(=O)c1oc2ccc(Br)cc2c1Cn1nc(C(=O)O)c2ccccc2c1=O
  -0.4	·
[39] Cn1c2c(c(=O)[nH]c1=O)C(C(F)(F)F)(C(F)(F)F)NC(=O)N2
  -3.9	2.4
[38] N#Cc1cccc(NC(=O)COC(=O)Cc2ccccc2)c1
  0.3	·

More results follow:
Values run as follows: BasE inh	LANA-nucl inh
[41] Cc1ccc(S(=O)(=O)N2CC=C(C(=O)Nc3cccc(F)c3)CC2)cc1
  1.2	0
[42] COc1cccc(-c2nn(-c3ccccc3)cc2C(=O)n2nnc3ccccc32)c1
  -3.2	1.6
[43] O=C(O)c1ccc2c(c1)C1c3ccccc3CC1C(c1cccc(Cl)c1)N2 (stereo unspecified)
  4.3	·
[44] CC1CN(C(=O)c2ccccc2C(=O)c2ncc[nH]2)CC(C)O1 (stereo unspecified)
  1.6	·
[45] O=C(NC1CCCCC1)N1CCN(C2CCCCC2)CC1
  2.0	0.36
[46] C=CCn1c(C(O)c2ccccc2)n[nH]c1=S (stereo unspecified)
  2.0	0.35
[47] CCOc1ccc(N2C(=O)CC(Sc3ncccc3C(=O)O)C2=O)cc1 (stereo unspecified)
  0.3	-0.33
[48] CCOC(=O)c1ccccc1NC(=O)CSc1nc2c(oc3ccccc32)c(=O)n1C1CCCC1
  0.4	-1.3
[49] O=C(CSc1nc(C(F)(F)F)nc2ccccc12)N1CCNC1=O
  -0.8	·
[50] CC(Sc1cccc[n+]1[O-])C(=O)NC1CCCCC1C (stereo unspecified)
  1.4	·
[51] O=c1[nH]c(CSc2nnc(Cc3cccs3)n2C2CCCCC2)nc2ccsc12
  -5.0	·
[52] O=C(C(C(=O)N1CCCCC1)C12CC3CC(CC(C3)C1)C2)N1CCCCC1
  -2.0	·
[53] O=c1[nH][nH]c(=S)n1CC1CCCO1 (stereo unspecified)
  -1.0	·
[54] CCCn1nc(C(=O)O)ccc1=O
  -0.2	·
[55] CN(C)CCNC(=O)c1ccc(-n2c(-c3ccccc3)nc3cccnc32)cc1
  8.8	-0.22
[56] O=C1Nc2c(c3ccccc3oc2=O)Nc2ccccc21
  -0.7	1.3
[57] CCCCNc1nc2ccccc2n1Cc1ccc(C#N)cc1
  -2.7	·
[58] N#CCc1ccc(NC(=O)C2CCCCC2)cc1
  1.0	0.57
[59] COc1ccc(NC(=O)CSc2nnc3[nH]c(=O)c(C)nn23)cc1Cl
  -1.3	·
[60] CC(C)/C=N/NC(=O)c1ccccc1
  0.2	-0.23
[61] Cc1ccc(SCc2nnc(-c3c(-c4ccccc4)noc3C)o2)cc1C
  2.0	·
[62] COCCCn1c(-c2cccs2)nc2c(c(=O)c3ccccc3n2C)c1=O
  ·	-0.44
[63] CCOc1cc(CO)cc(Br)c1OCc1ccc(C(=O)O)cc1
  2.1	-0.22
[64] COc1ccc(OCC(O)CN2CCCCC2)cc1 (stereo unspecified)
  -1.2	1.3
[65] CCN(CC)c1ccc2c(C)cc(=O)oc2c1
  -0.7	·
[66] Cc1nc(Cc2nnc(SCCCn3c(=O)[nH]c4ccccc43)o2)cs1
  -0.3	·
[67] COC(=O)c1c(CC(C)C)csc1N
  -2.4	·
[68] Cn1cnc2cc(NC(=O)c3cccs3)ccc21
  -6.1	0.48
[69] CCN(CC)C(=O)c1sc2ccccc2c1Cl
  22	0.53
[70] CCSC1=C(C#N)C(c2ccccc2Cl)C(C#N)=C(N)N1 (stereo unspecified)
  0.3	·

Reprinted at random: 4 compounds from above, in no set order.
Values run as follows: BasE inh	LANA-nucl inh
[1] CCc1ccc(C(=O)COC(=O)C2CSC3(C)CCC(=O)N23)cc1 (stereo unspecified)
  -1.1	·
[55] CN(C)CCNC(=O)c1ccc(-n2c(-c3ccccc3)nc3cccnc32)cc1
  8.8	-0.22
[66] Cc1nc(Cc2nnc(SCCCn3c(=O)[nH]c4ccccc43)o2)cs1
  -0.3	·
[34] Cn1c(=O)c2c(O)c(C=NCc3ccccc3)c(=O)n(C)c2n(C)c1=O
  0.8	·

The list continues.
Values run as follows: BasE inh	LANA-nucl inh
[71] CCN1CCCCCC1CO (stereo unspecified)
  1.1	-0.63
[72] Cc1ncc(CO)c2cc(C(N)=S)c(=Nc3ccc(S(N)(=O)=O)cc3)oc12
  0.2	2.1
[73] NCC1(N2CCCCC2)CCCCC1
  -0.9	0.17
[74] CCN1C(=O)CC(N2CCC(Nc3ccc(OC)cc3)CC2)C1=O (stereo unspecified)
  2.3	-0.24
[75] Cc1cc(C)n2nc(-c3ccc(C(C)(C)C)cc3)cc2n1
  -1.2	·
[76] Cc1nn(-c2ccccc2Cl)c2nc(-c3ccco3)cc(C(=O)NN)c12
  0.4	·
[77] CC1CN(CC(O)COCc2ccc(Cl)cc2)CCN1CC(O)COCc1ccc(Cl)cc1 (stereo unspecified)
  0.2	·
[78] Cc1cccc(NC(=O)C2CC(=O)NC(Nc3nc4ccccc4s3)=N2)c1 (stereo unspecified)
  0.9	0.069
[79] CCc1ccc(C2C(C#N)=C(N)N(N3CCOCC3)C3=C2C(=O)CC(C)(C)C3)cc1 (stereo unspecified)
  1.1	·
[80] CCc1noc(C)c1C(=O)Nc1cccc(Cn2cc(Cl)cn2)c1
  0.2	0.67
[81] O=C(COC(=O)C1(c2ccc(F)cc2)CCCC1)N1CCN(C(=O)c2ccco2)CC1
  1.4	·
[82] COc1ccc(NC(=O)N2CCn3c2nc2ccccc23)cc1
  2.2	-0.1
[83] O=C(O)c1ccccc1SCc1cn2ccccc2n1
  3.1	·
[84] O=C(Nc1ccc(F)cc1)C(Sc1nnc(C2CC2)o1)c1ccccc1 (stereo unspecified)
  1.1	·
[85] COc1cc2nc(N(C)CCCNC(=O)C3CCCO3)nc(N)c2cc1OC (stereo unspecified)
  -2.4&0.6	0.34&0.36&1.1&-0.55
[86] CNS(=O)(=O)c1cc(C(=O)N2CCCCC2)ccc1OC
  0.5	-0.35
[87] CCOC(=O)c1[nH]c(C)c(C(=O)OCC(=O)c2cc(C)n(-c3nccs3)c2C)c1C
  1.6	·
[88] O=C(COC(=O)c1ccc(O)cc1)Nc1nccs1
  -6.4	·
[89] CN1C(=O)S/C(=C\c2cc(Cl)c(OCC(=O)O)c(Cl)c2)C1=O
  3.2	·
[90] CS(=O)(=O)N(CC(=O)NC1CC1)c1ccccc1
  2.0	-1.1
[91] Cc1ccc(NC(=O)C(C)OC(=O)C2CCN(c3ccc(C(F)(F)F)cn3)CC2)cc1 (stereo unspecified)
  2.4	·
[92] COc1cc(NS(=O)(=O)c2ccc(NC(=O)c3ccccc3)cc2)nc(OC)n1
  2.0	·
[93] C/C(=N\NC(=O)O)c1ccc(Oc2ccccc2)cc1
  -0.7	0.065
[94] CC(C)C(C)(C#N)Nc1ccccc1 (stereo unspecified)
  2.4	·
[95] COc1cccc(CSc2nnc(-c3cc4occc4n3C)n2-c2ccccc2C)c1
  1.4	0.12
[96] Cc1cc(C)n(C(C)CC(=O)NC2CCC(C)CC2)n1 (stereo unspecified)
  -0.1	-1
[97] COc1ccc(-c2c3c(nc4sc(C(=O)N5CCCCCC5)c(N)c24)CC(C)(C)CC3=O)cc1
  0.4	·
[98] Cc1oc2c(c1C(=O)N1CCc3ccccc31)C1=NCCN1C=N2
  -2.9	3.4
[99] CC(C)(C)NC(=O)[C@@H]1Cc2ccccc2CN1
  1.4	0.37
[100] CCOC(=O)c1c(C)[nH]c(C)c1C(=O)COC(=O)c1ccc(Cl)c(S(N)(=O)=O)c1
  -1.4	·
[101] N#Cc1c(N)n(-c2cccc(N)c2)c2nc3ccccc3nc12
  -0.8	·
[102] O=S(=O)(NN1CCOCC1)c1ccc2ccccc2c1
  2.1	0.051
[103] CC(=O)Nc1ccc(NC(=O)CCSc2ccccc2)cc1
  0.4	·
[104] CC/C(=N\NC(=O)c1ccncc1)c1cccc(Cl)c1
  0.1	0.41
[105] O=C(NCc1ccco1)Nc1c[nH]c2ccc(F)cc2c1=O
  0.1	0.0035
[106] CC1CCN(c2ccc(NC(=O)c3ccccc3)cc2)CC1
  0.1	0.97
[107] O=C(COc1ccc(Br)cc1CO)NCC(F)(F)F
  1.3	·
[108] CCOc1cc(-c2noc(CCCC(=O)N3CCOCC3)n2)cc(Br)c1OC
  -0.3	-0.04
[109] Cc1nc2cc(NC(=O)CCS(=O)(=O)c3ccccc3)ccc2s1
  -8.6	-1.5
[110] COCCn1c(C)cc(C(=O)COC(=O)Cn2c(C)csc2=O)c1C
  1.6	·
[111] Cc1cccc(OCc2nnc(SCC(=O)N(C(C)C)C(C)C)n2Cc2ccco2)c1C
  -1.7	0.39
[112] CCc1nnc2n1N=C(c1ccc(-c3ccc(Cl)cc3Cl)o1)CS2
  3.0	0.14
[113] COCCn1c(SCC(=O)NC(=O)CN2CCCC2=O)nc2ccccc2c1=O
  1.2	·
[114] CC(=O)NC1C(=O)Nc2ccccc2S(=O)(=O)C1c1ccccc1 (stereo unspecified)
  1.0	·
[115] Clc1ncnc2c1oc1ccccc12
  -2.6	2.2
[116] CCOC(=O)Nc1ccc2c(CN3CCN(S(=O)(=O)c4ccccc4)CC3)cc(=O)oc2c1
  0.3	·
